RanGTP-Imp inh: inhibitors of RanGTP-importin-beta interaction, primary screen, biochemical, FRET, CFP-Ran, YFP-importin-beta, homogeneous; cell-free CFP-Ran/YFP-importin-beta FRET ratio; inhibition, % (concentration not given with the values); 300,000 compounds, 1.1% hits; AID 2216;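 active means most replicates above 15%; inconclusive means exactly half above 15%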;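 further: 0% = DMSO wells and 100% = Ran loaded with GDP instead of GTP; wells of about 40 µL received 100 nL stock; the first replicate is given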
Bfl-1 A1 inh: inhibitors of the anti-apoptotic protein A1, read as caspase activation; AID 2462; 330,000 compounds, 0.066% hits; caspase activation, % (no concentration beside the values); MEF A1-2A-BIM cells, Caspase-Glo 3/7 luminescence, 3 h; percent of clofoctol response, vehicle zero;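 active means over half of replicate activation scores above 10%, or exactly half above 10 with the replicate mean above 10; inconclusive means replicate mean below 10 yet half the replicates above 10; inactive means over half of replicates below 10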;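 further: wells of about 30 µL received 50 nL stock; many hits fall short of the cut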
Calb FLC: affects C. albicans growth with fluconazole; growth inhibition, % (no concentration beside the values); C. albicans CaCi-2 (fluconazole-resistant clinical isolate) + fluconazole, Alamar Blue growth, 48 h; 300,000 compounds, 0.57% hits;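 active means most replicates above 75%; inconclusive means exactly half above 75%; inactive means most below 75%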;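 further: all wells also contain fluconazole at 8 µg/ml as a sub-toxic cotreatment; 0% = median of DMSO wells and 100% = median of geldanamycin control wells; wells of about 8 µL received 7.5 nL stock; the first replicate is given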
MLL AF4-AF9 inh: blocks AF4 peptide binding to human AF9; AlphaScreen, biotin-AF4 peptide binding to FLAG-AF9; P42568; inhibition, % at 10 µM; 350,000 compounds, 0.47% hits;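 active means every replicate reaching a set inhibition limit, whatever the replicate mean, cut at about 25% in these data; inconclusive means mean inhibition reaches that limit but some replicates miss it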;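 further: 0% = plate neutral control median and 100% = total signal loss; the record names both 10 and 1 µM as test concentration; the first replicate is given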
Target sequence (P42568 whole entry, looked up): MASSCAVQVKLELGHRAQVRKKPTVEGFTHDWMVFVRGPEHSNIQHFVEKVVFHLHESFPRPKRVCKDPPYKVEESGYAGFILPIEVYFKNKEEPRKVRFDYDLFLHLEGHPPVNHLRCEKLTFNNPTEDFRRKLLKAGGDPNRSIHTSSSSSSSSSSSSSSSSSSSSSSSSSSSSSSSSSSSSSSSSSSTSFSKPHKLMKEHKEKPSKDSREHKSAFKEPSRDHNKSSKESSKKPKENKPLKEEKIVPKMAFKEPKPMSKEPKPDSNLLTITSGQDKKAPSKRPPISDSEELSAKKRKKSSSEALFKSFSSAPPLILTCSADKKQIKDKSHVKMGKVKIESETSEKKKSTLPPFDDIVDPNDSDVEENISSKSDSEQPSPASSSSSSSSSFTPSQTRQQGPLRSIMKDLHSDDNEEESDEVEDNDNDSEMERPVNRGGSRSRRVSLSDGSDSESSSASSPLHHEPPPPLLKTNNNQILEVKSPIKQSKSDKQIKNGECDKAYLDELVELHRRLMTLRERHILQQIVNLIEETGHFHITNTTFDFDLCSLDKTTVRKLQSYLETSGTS
T cruzi inh: blocks replication of Trypanosoma cruzi; T. cruzi beta-gal in NIH3T3, luminescence, 90 h; inhibition, % (concentration not given with the values); 300,000 compounds, 1.4% hits;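 active means mean inhibition across valid replicates above about 55%, limit read from the data; inconclusive means mean below that limit but half or more replicates reach it; inactive means mean below it, under half of replicates reach it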;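 further: signal also drops with host cell toxicity which is not excluded here; 0% = plate median of DMSO wells and 100% = zero luminescence signal; higher percent means less beta-gal luminescence so fewer parasites; stock transfer was 50 nL into about 50 µL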
Beta cell apopt: beta cell apoptosis inhibition | INS-1E cytokine-induced death, ATP luminescence, 48 h; percent of positive-control rescue, neutral wells zero | 300,000 compounds, 0.8% hits | protection from apoptosis, % (test concentration not listed);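 active means all replicates at 75% or more, or half of them and the mean; inconclusive means half reach 75% but not the mean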;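 further: 0% = cytokine-treated negative control wells and 100% = positive control rescue; higher means more ATP so stronger rescue from cytokine killing; wells of about 40 µL received 100 nL stock; the first replicate is given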
LANA-H2B inh: blocks KSHV LANA binding to histone H2A/H2B. Q9QR71. cell-free LANA-H2A/H2B peptide, fluorescence polarization. inhibition, % (no concentration beside the values). 320,000 compounds, 0.6% hits. AID 2629; in the data active means inhibition mostly above about 10%, no sharp cut-off; inactive means mostly below about 6.7%;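 further: stock transfer was 7.5 nL into about 10 µL; 0% = median of vehicle wells and 100% = median of positive control wells; one replicate is shown; the record names a cut of 25% in any replicate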
Vif A3G: HIV-1 Vif–A3G interaction blockers – biochemical, TR-FRET, GST-Vif 1-94, biotin-A3G peptide, dose response retest, primary screen (AID 1117319) | 260,000 compounds, 0.57% hits | TR-FRET GST-Vif / biotin-A3G peptide binding; higher % means a stronger effect; test concentration not given here; strong numbers were not always called active | inhibition, %; hits with a dose series show IC50 in µM;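 active means above the screen mean plus three standard deviations and confirmed in dose response; inconclusive means results disagree or hit not tested in dose response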;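 further: Vif residues 1-94 fused to GST binding biotinylated APOBEC3G peptide 110-148; 0% = full assay without inhibitor and 100% = GST in place of GST-Vif; retest series ran down from 100 µM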
The depositor's hits bear a star; ? = inconclusive; nt = not tested or not shown; & = joins results of further samples.

SMILES,RanGTP-Imp inh,Bfl-1 A1 inh,Calb FLC,MLL AF4-AF9 inh,T cruzi inh,Beta cell apopt,LANA-H2B inh,Vif A3G
CC(C#N)Sc1ncnc2sc3c(c12)CCC3 (stereo not given),-4.4,0.6,0,nt,-10,-8,0.0,11%
Brc1ccc(-n2c(SCc3nc4ccccc4[nH]3)nnc2-c2ccncc2)cc1,-1.6,0.0,2,nt,-2,4,-2.3,nt
O=C(c1cn(-c2ccccc2)nc1-c1ccc(Br)cc1)N1CCOCC1,-0.6,1.1,1,-0.5,3,0,0.9,0%
Cc1ccc(C2NNC(=O)C2NC(=O)c2ccccc2)cc1 (stereo not given),-2.3,-0.2,4,nt,12,-11,-2.0,6%
CCc1ccc(CN2CCC(Oc3ccc(C(=O)N4CCCCC4)cc3)CC2)cc1,?,0.6,-29,5.0,26,-1,-38,-4%
O=C(O)CSc1nc(-c2ccccc2)nc2c1oc1ccccc12,3.5,-0.3,34,nt,-4,-2,-2.6,-7%
Cc1ccc2cc(C(c3nnnn3C3CCCC3)N(Cc3ccccc3)Cc3ccco3)c(=O)[nH]c2c1 (stereo not given),2.9,-0.4,12,6.2,10,-4,-0.4,-2%&0%
Cc1nnc(C)n1/N=C/c1ccc(-c2ccccc2)cc1,1.3,-0.1,19,nt,-8,1,-1.2,-2%
COc1ccc(NCC(=O)N/N=C(\C)c2cc3ccccc3o2)cc1,4.3,-0.7,0,7.4,6,3,-0.8,7%
COc1ccc(C(=O)/C=C/C(=O)N(Cc2ccccc2)C(C(=O)NC2CCCCC2)c2ccncc2)c(O)c1 (stereo not given),-3.1,-0.3,18,-15,-1,11,-4.2,-6%
Nc1nc(-c2sc3nc4c(cc3c2N)CCCC4)nc(N2CCOCC2)n1,6.3,0.7,9,nt,18,4,2.3,nt
COc1ccc([N+](=O)[O-])cc1NC(=O)Nc1ccc(OC)c(OC)c1,-3.1,-0.5,0,6.0,6,-4,1.6,2%
Cc1nc2ccccn2c1-c1ccnn1S(=O)(=O)c1ccc(F)cc1,6.3,0.0,0,2.1,8,17,-3.4,-8%
CCOc1ccc(S(=O)(=O)N(CC)CC(=O)N2CCOCC2)cc1C,-0.4,0.1,2,-5.4,-14,-3,-3.3,nt
Cc1ccc(S(=O)(=O)n2nc(-c3ccco3)nc2N)cc1,3.8,0.3,11,-1.5,-3,-7,1.9,5%
CC(=O)N1SC(N)=NC1c1ccccc1 (stereo not given),0.0,-0.3,-9,nt,-14,-6,-1.4,14%
O=C(CSc1nnc(-c2ccccn2)n1Cc1ccco1)c1ccccc1,3.6,1.6,28,nt,-7,1,1.6,-14%
CCOc1ccccc1N(CC(=O)NCCc1ccccc1)C(=O)CCC(=O)Nc1ccccn1,-0.2,1.3,-8,-1.1,10,-8,2.8,nt
CCCN(C(=O)c1cc(Cl)nc2ccccc12)C1CCS(=O)(=O)C1 (stereo not given),2.4,0.4,15,-16,-5,-8,4.4,-8%
COc1ccc(CCNc2nc(N3CCCCC3)nc(N3CCCCC3)n2)cc1OC,-5.2,0.0,-4,nt,42,7,0.3,4%
Cc1ccc(C(=O)c2ccccc2C(=O)OCC(=O)N2C(C)CCCC2C)cc1 (stereo not given),nt,0.1,nt,1.9,nt,-3,0.0,-4%
Cc1cc(OCC(=O)Nc2ccc(S(=O)(=O)N3CCN(C)CC3)cc2)ccc1Br,0.3,0.2,4,3.4,9,-5,-3.9,-5%
CN(Cc1ccccc1F)C(=O)c1ccccc1Sc1ccccc1C#N,-1.9,-0.4,20,-15,28,-5,-1.0,nt
CCN(CC)C(=S)NC(=O)Cc1ccccc1,-0.6,0.4,5,-2.7,-18,nt,3.0,nt
COc1cc(/C=C2/SC(=S)N(CCC(=O)Nc3ccccc3)C2=O)cc(OC)c1OC,-17,-0.5,0,2.6,5,14,-7.3,nt
COc1ccc2[nH]c(=O)c(CN(Cc3cccnc3)C(=S)NCC3CCCO3)cc2c1 (stereo not given),0.9,0.7,3,-2.6,15,-2,1.9,nt
C/C(=N\NC(=O)c1ccoc1C)c1cccnc1,-0.7,-2.0,11,nt,2,4,2.5,2%
COc1cc(OC)cc(OCC(O)Cn2cnc(-c3ccccc3)c2)c1 (stereo not given),0.0,-0.2,-7,8.4,-8,-4,2.9,-9%
CCCc1nnc2n1N=C(c1ccc(OC)c(OC)c1)CS2,?,1.2,-7,-3.7,-9,2,5.4,-1%&0%
O=C(CN1C(=O)/C(=C/c2ccccc2F)Sc2ccccc21)NCCCN1CCOCC1,1.0,2.5,3,10,13,nt,-0.2,2%
O=C(CSc1nnnn1C1CC1)Nc1cc(S(=O)(=O)N2CCCC2)ccc1Cl,nt,-0.5,nt,3.0,nt,-10,8.7,-4%
CC(C)OP(=O)(OC(C)C)C(Nc1ccccn1)c1ccc(F)cc1 (stereo not given),1.1,-0.2,-12,nt,-11,2,0.6,-7%
Cc1ccc(Cl)c(NC(=O)CN(C)CC(=O)Nc2ccc(F)c(F)c2F)c1Cl,1.6,0.1,-5,4.7,-6,-1,nt,2%
CCN(CC(=O)N1CCOCC1)S(=O)(=O)c1ccc(Cl)cc1,2.0,0.3,-4,-4.3,-6,-4,-1.6,nt
CCOC(=O)C1(CCCc2ccccc2)CCN(C(=O)C(C)n2cncn2)CC1 (stereo not given),5.0,-0.5,-2,-1.1,5,1,-5.7,4%
CC(=O)c1ccc(NC(=O)C2CC(=O)N(C(C)C)C2)cc1 (stereo not given),1.5,-1.0,24,0.9,-1,-8,1.2,2%
CCOC(=O)c1sc2nc(C)nc(SC(C)C(=O)NC3CC3)c2c1C (stereo not given),nt,0.4,nt,-0.2,nt,0,nt,6%
COc1ccc(C(=O)OCCOc2ccccc2C(C)=O)c(O)c1,1.1,1.2,43,-5.6,0,-1,7.4,nt
O=C(O)c1ccc(COc2ccccc2[N+](=O)[O-])o1,-2.0,-2.0,-5,-18,16,-2,-2.4,nt
Cc1ccc(C(C)C)c(OCC(=O)NS(=O)(=O)c2ccc(Cl)cc2)c1,-1.2,-2.0,-10,-2.0,-3,0,-1.4,nt
COc1ccc(C(CC(=O)NCCN2CCOCC2)NS(=O)(=O)c2ccc(C)cc2)cc1 (stereo not given),-0.5,0.0,4,-4.7,-5,-3,-1.4,10%
O=C(c1cccs1)N1CCC(c2nc3ccccc3s2)CC1,0.3,0.7,5,11,7,2,1.6,1%
CCn1c(=O)cc(SCC(=O)NCC2CCCO2)c2ccccc21 (stereo not given),-0.8,0.0,-6,nt,-15,1,1.7,3%
Clc1cccc(CNCCNCc2cccc(Cl)c2)c1,1.0,-0.2,1,8.3,6,-10,-1.2,13%
CCOC(=O)c1nnn(-c2nonc2-n2cccc2)c1CN1CCCCC1,-2.3,0.3,-7,nt,5,-37,nt,-2%
CC1(C)CC(=O)C(=CN2CCN(C(=O)c3ccco3)CC2)C(=O)C1,5.1,nt,-9,4.4,-8,nt,nt,-6%
O=C(O)CCC(=O)N1CCOc2ccc(Cl)cc21,3.4,-2.0,7,nt,-1,-7,0.4,-1%
Cc1[nH]c2ccccc2c1C(=O)CSc1cccc[n+]1[O-],0.0,0.9,-3,-0.7,-17,-3,0.6,29%

Whole records, looked up by structure. Values in the order: RanGTP-Imp inh	Bfl-1 A1 inh	Calb FLC	MLL AF4-AF9 inh	T cruzi inh	Beta cell apopt	LANA-H2B inh	Vif A3G
`Cc1[nH]c2ccccc2c1C(=O)CSc1cccc[n+]1[O-]` is listed as 0.0	0.9	-3	-0.7	-17	-3	0.6	29%
`CC1(C)CC(=O)C(=CN2CCN(C(=O)c3ccco3)CC2)C(=O)C1` is listed as 5.1	nt	-9	4.4	-8	nt	nt	-6%

More compounds follow:
SMILES,RanGTP-Imp inh,Bfl-1 A1 inh,Calb FLC,MLL AF4-AF9 inh,T cruzi inh,Beta cell apopt,LANA-H2B inh,Vif A3G
Cc1cc(C)c2[nH]c(C(=O)Nc3ccc(F)cc3Br)cc2c1,4.1,-0.6,11,-5.0,-9,6,-1.1,-13%
Cc1cc(C)n(CC(O)CN2C(=O)NC(C)(C)C2=O)n1 (stereo not given),2.0,0.7,-2,nt,-7,0,3.6,10%
Cc1ccc(NC(=O)c2cc(-c3ccc(C)o3)nc3ccccc23)nc1,1.8,-0.9,26,nt,-22,-9,1.9,34µM*
COc1ccc(-c2coc3c(CN4CCOCC4)c(O)ccc3c2=O)cc1,-1.1,0.6,15,1.2,4,3,-1.3,-4%
O=C(CCCc1nc(-c2ccccc2)no1)NCc1cccnc1,-4.8,0.9,0,nt,-15,26,3.4,1%
O=[N+]([O-])c1ccc(NNC(=S)Nc2ccccc2)cc1,2.3,2.0,?,nt,19,30,4.9,14%
O=C(O)CCc1ccc(-c2ccc(Cl)cc2)n1CCC(=O)O,2.4,-0.1,8,-12,-2,nt,-7.9,4%
Cc1cc(Cl)cc(C)c1OCC(=O)O,2.6,0.6,-13,nt,-20,-2,-3.9,-1%
C[C@H](CO)N1C[C@H](C)[C@@H](CN(C)C(=O)NC2CCCCC2)Oc2c(NS(=O)(=O)c3cn(C)cn3)cccc2C1=O,nt,3.7,nt,-1.2,nt,1,4.0,nt
CC(CNC(=O)CCc1ccccc1)NC(=O)CCc1ccccc1 (stereo not given),-0.7,-0.1,-1,2.1,nt,-1,-0.2,nt
COC(=O)Cc1c(O)ccn(Cc2ccccc2OC)c1=O,1.3,1.1,3,nt,-18,-7,-1.9,-4%
O=C(Nn1c(-c2ccc(Br)cc2)nc2ccccc2c1=O)c1cccnc1,?,-0.6,22,-0.4,-7,-6,4.1,nt
Cc1ccc(CNC(=O)/C=C/c2ccc(S(=O)(=O)NCc3ccco3)cc2)cc1,1.3,0.1,-1,-8.4,-6,1,-2.6,8%
COc1cc(NC(=O)c2cc([N+](=O)[O-])ccc2N2CCOCC2)ccc1NC(=O)c1ccco1,4.6,0.1,3,1.2,2,7,3.2,6%
Cc1ccc(S(=O)(=O)NC(C(=O)N2CCOCCOCCOCCOCC2)c2ccccc2)cc1 (stereo not given),-0.3,0.2,-10,-0.5,1,-6,-3.3,nt
COc1ccc2[nH]cc(CCNC(=O)Cc3ccc(Br)cc3)c2c1,5.2,0.8,35,5.0,-13,nt,2.3,nt
CCN(CC)Cc1oc(CO)cc(=O)c1O,-3.3,-0.5,-18,-3.1,-2,-12,1.5,?
Clc1ccc(CN2C3=NCCN3c3ccccc32)cc1Cl,-1.1,0.4,-15,nt,?,11,4.2,-2%
CCCCCn1c(N2CCN(Cc3ccccc3)CC2)nc2c1c(=O)[nH]c(=O)n2C,-2.1,0.4,0,nt,11,nt,-3.4,9%

High-throughput results: PubChem BioAssay, several laboratories
